Screening data (PubChem)
E coli growth: E. coli growth inhibition | Escherichia coli growth, OD600, 23 h; stronger effect = lower value | OD600 absorbance (no concentration beside the values) | hit rate 0.21% among 330,000 | AID 1053175;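 active = OD600 absorbance below the run mean of sample wells minus 3.6 SD, in any replicate, cut at about 0.56 in these data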;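 also: stock transfer was 300 nL into about 60 µL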
Ecoli rRNA inh: inhibitors of bacterial rRNA selective over humanized ribosomes. E. coli WT GFP vs humanized-ribosome RFP mutants, fluorescence, 24 h; stronger effect = lower value; DMSO median 0, no signal -100. GFP signal change (wild-type ribosome), % (concentration not given with the values). hit rate 1.6% among 350,000. AID 720706;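 active = significant combined selectivity score with lowered wild-type GFP, culture density cut under 30%, mutant RFP and density less affected; inactive = any of these conditions unmet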; also: one replicate is shown; some compounds called inactive have numbers as strong as hits
HNF4A DNA FP: change in binding of human HNF4 alpha to DNA; P41235; HNF4a-FITC DNA binding, fluorescence polarization, 1 h; activity change, % at 10 µM; hit rate 0.3% among 360,000; AID 1224865; in the data active = activity change above about 30%, passing the limit was not always enough;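 also: controls were the assay level and a saturating level of protein; the project sought stronger binding though the title names inhibitors; some compounds called inactive have numbers as strong as hits; positive values seem to mean higher polarization but the record does not say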
Target sequence (P41235 whole entry, looked up): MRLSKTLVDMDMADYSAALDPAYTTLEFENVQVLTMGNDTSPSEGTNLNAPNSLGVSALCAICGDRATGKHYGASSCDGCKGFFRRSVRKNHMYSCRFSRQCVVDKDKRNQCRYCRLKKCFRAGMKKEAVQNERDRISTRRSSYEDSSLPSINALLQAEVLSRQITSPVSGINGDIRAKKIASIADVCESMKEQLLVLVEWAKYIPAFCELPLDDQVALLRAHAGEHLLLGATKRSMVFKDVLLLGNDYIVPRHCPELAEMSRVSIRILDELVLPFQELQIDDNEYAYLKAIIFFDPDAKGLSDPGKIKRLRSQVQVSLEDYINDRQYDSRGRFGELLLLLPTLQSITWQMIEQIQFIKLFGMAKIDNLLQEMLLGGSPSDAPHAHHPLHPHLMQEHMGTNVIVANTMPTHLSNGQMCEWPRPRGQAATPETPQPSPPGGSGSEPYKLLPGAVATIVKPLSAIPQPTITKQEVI
FGF22 binding: FGF22 (human) thermal shift binding. Q9HCT0. hit rate 1.5% among 340,000. calls only at 9.99 µM. recombinant FGF22 thermal shift, SYPRO orange fluorescence; percent of sucrose octasulfate shift, DMSO zero;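 active = melting point raised past a set limit in the mean and every replicate; inconclusive = no clear call; three in four hits are not shown here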
Target sequence (Q9HCT0 whole entry, looked up): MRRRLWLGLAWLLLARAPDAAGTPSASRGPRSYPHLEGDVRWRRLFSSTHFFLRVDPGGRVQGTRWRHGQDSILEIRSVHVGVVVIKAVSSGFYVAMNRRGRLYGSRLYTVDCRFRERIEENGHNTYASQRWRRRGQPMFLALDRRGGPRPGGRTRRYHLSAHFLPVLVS
ALR inh: blocks human ALR sulfhydryl oxidase activity. inhibition, % (no concentration beside the values). P55789. AID 485317. purified ALR, DTT oxidation, H2O2 HRP-luminol luminescence. hit rate 3.8% among 290,000;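 active = mean and each replicate at 75% or more; inconclusive = only one of the two met; inactive = neither met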;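 also: stock transfer was 7.5 nL into about 7.5 µL; 0% = neutral wells and 100% = wells with inactivated enzyme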
Target sequence (P55789 whole entry, looked up): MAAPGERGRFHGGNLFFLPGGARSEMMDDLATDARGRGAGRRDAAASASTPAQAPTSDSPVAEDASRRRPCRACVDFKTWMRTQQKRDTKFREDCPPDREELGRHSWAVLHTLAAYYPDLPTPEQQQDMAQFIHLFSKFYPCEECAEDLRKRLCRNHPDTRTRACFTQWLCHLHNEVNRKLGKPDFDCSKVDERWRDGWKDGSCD
Vif TR-FRET: HIV-1 Vif–A3G interaction blockers – biochemical, TR-FRET, GST-Vif 1-94, biotin-A3G peptide, dose response retest, primary screen (AID 1117319). TR-FRET GST-Vif / biotin-A3G peptide binding; higher % means a stronger effect; test concentration not given here; strong numbers were not always called active. inhibition, %; hits with a dose series show IC50 in µM. hit rate 0.57% among 260,000;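 active = above the screen mean plus three standard deviations and confirmed in dose response; inconclusive = results disagree or hit not tested in dose response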;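 also: Vif residues 1-94 fused to GST binding biotinylated APOBEC3G peptide 110-148; 0% = full assay without inhibitor and 100% = GST in place of GST-Vif; retest series ran down from 100 µM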
MLL AF4-AF9 inh: inhibitors of human MLL-AF4/AF9 interaction; AlphaScreen, biotin-AF4 peptide binding to FLAG-AF9; P42568; hit rate 0.47% among 350,000; AID 651704; inhibition, % at 10 µM;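 active = every replicate reaching a set inhibition limit, whatever the replicate mean, cut at about 25% in these data; inconclusive = mean inhibition reaches that limit but some replicates miss it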;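 also: 0% = plate neutral control median and 100% = total signal loss; the record names both 10 and 1 µM as test concentration; the first replicate is given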
Ecoli rRNA inh OD600: recorded beside Ecoli rRNA inh, whose call it bears; OD600 change, %; measured here: OD600 growth;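 optical density of the mix in the first replicate; 0 = DMSO median and -100 = no signal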
Ecoli rRNA inh RFP: recorded beside Ecoli rRNA inh, whose call it bears; RFP signal change, %; measured here: RFP humanized mutant strains;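 first replicate; 0 = DMSO median and -100 = no signal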
An asterisk follows results filed as active; i = inactive; ? = inconclusive; . = not tested or not shown; & = joins results of further samples. These rows are one share of the data; the hit share may differ from the screen's.

SMILES	E coli growth	Ecoli rRNA inh	Ecoli rRNA inh OD600	Ecoli rRNA inh RFP	HNF4A DNA FP	FGF22 binding	ALR inh	Vif TR-FRET	MLL AF4-AF9 inh
CC1CN(c2nc3ccccc3nc2SCC(=O)Nc2cccc(C(F)(F)F)c2)CC(C)O1 (configuration not stated)	0.73	2	-1	1.1	-0.9	i	0	.	-3.2
C[C@@H]1CN([C@H](C)CO)C(=O)c2cc(NS(C)(=O)=O)ccc2O[C@@H](C)CCCCO[C@@H]1CN(C)Cc1ccncc1	.	-1	-2	-1.0	.	i	.	.	-0.5
Cc1cc(OCc2nc(N)nc(N)c2-c2ccc(Cl)c(Cl)c2)ccc1[N+](=O)[O-]	.	-49	-58	-15	1.3	i	.	6%	2.6
OCCO	0.7	1	19	-3.0	6.3	i	.	.	-1.8
Cc1ccc(C2c3sc(=O)[nH]c3SC3C4CC(C5C(=O)N(C(C)C(=O)O)C(=O)C45)C23)cc1 (configuration not stated)	0.64	.	.	.	6.0	.	64	.	.
COc1ccc(NC(=O)CNS(=O)(=O)c2cccs2)c(OC)c1	0.65	.	.	.	0.6	.	-8	2%	.
O=C(CCN1CCCCC1)N[C@@H]1CC[C@H](CCNC(=O)c2cc(Cl)cc(Cl)c2)O[C@H]1CO	.	1	-1	0.1	.	i	.	.	12
CC(=O)Oc1ccc(OC(C)=O)c2c1CC1(C)OC1(C)C2 (configuration not stated)	.	10	19	-3.3	-2.9	i	.	-2%	-1.0
COc1cc(/C=C(\C#N)C(=O)Nc2cccc(C(=O)O)c2)ccc1OCc1ccc(Cl)cc1	.	-5	-8	4.0	1.9	i	3	.	0.3
Cc1cccc(CN2C(=O)c3ccccc3Sc3ccc(C(=O)O)cc32)c1	0.66	-21*	-9.9*	-1.7*	-2.5	i	71	27%	-3.7
CCNC(=O)C[C@@H]1CC[C@H]2[C@@H](COC[C@@H](O)CN2C(=O)c2ccccn2)O1	.	4	22	-1.6	.	i	.	.	-0.8
CNC(=S)NNC(=O)c1ccccc1Cl	0.64	.	.	.	4.4	i	13	-12%	0.2
Cc1noc(C)c1S(=O)(=O)N(C)C[C@@H]1OCCCC[C@H](C)Oc2ccc(NS(=O)(=O)c3cccs3)cc2C(=O)N([C@@H](C)CO)C[C@H]1C	.	4	1	1.8	.	i	.	.	1.3
O=C(COC(=O)CSc1ccc([N+](=O)[O-])cc1)NCCCc1ccccc1	0.66	-8	-6	0.4	2.0	i	1	.	-14
Cc1ccc(NC(=O)c2ccc3c(c2)N(CC(=O)N2CCCCC2)C(=O)C(C)(C)O3)cc1	0.68	.	.	.	6.3	.	-5	-4%	.
Fc1ccc(NC(=S)Nc2cc(Cl)ccc2Cl)cc1	0.62	-11	-4	-1.9	5.5	i	-4	-8%	-1.1
CCCNC(=O)c1ccc(N2CCC3(CC2)CC(c2cccc(Br)c2)=NO3)c(NC(=O)c2ccc(Cl)c([N+](=O)[O-])c2)c1	0.69	.	.	.	-3.0	.	1	.	.
O=C(c1ccc(Cl)c(S(=O)(=O)N2CCCC2)c1)N1CCOCC1	0.66	0	5	-0.3	-0.5	i	0	1%	-2.7
OCCN1CCN(c2nc(-c3ccccc3)c3cc(Cl)ccc3n2)CC1	0.63	.	.	.	1.7	.	-3	29%	.
COc1ccc(CNc2ccc(S(N)(=O)=O)cc2)cc1	0.68	-4	-5	-8.8	1.8	i	-9	16%	-4.2
O=C(C1CCCCC1)N1CC2(C1)[C@H](c1ccccc1)[C@H](CO)N2Cc1cncnc1	.	0	9	0.0	.	i	.	.	-11
Clc1nc(Oc2ccccc2)nc(-c2cn(-c3ccccc3)c3ccccc23)n1	0.6	12	6	1.5	2.8	i	-1	-3%	-2.5
O=C(Nc1ccc2oc(-c3ccccc3F)nc2c1)c1ccco1	0.65	-1	2	-1.3	3.6	i	0	1%	-2.4
C[C@@H]1CN([C@@H](C)CO)S(=O)(=O)c2ccc(Br)cc2O[C@@H]1CN(C)C	.	-3	2	-3.7	.	i	.	.	-3.4
C=CCSc1nc2ccccc2n1C(=O)/C=C/c1ccc(OC)c(OC)c1	0.69	12	21	0.6	-3.2	i	18	-2%	-0.7
CS(=O)(=O)N(CC(=O)Nc1ccc(S(=O)(=O)N2CCOCC2)cc1)c1ccccc1Br	0.66	-3	-5	2.1	-4.8	i	0	-1%	-1.0
COc1ccccc1C(=O)NNC(=O)c1ccc(Br)cc1	0.64	10	3	5.0	1.1	.	.	3%	-1.0
Cc1ccc(S(=O)(=O)Nc2ccc3c(c2)CC(=O)N([C@@H](C)CO)C[C@@H](C)[C@@H](CN(C)C(=O)NC2CCCCC2)O3)cc1	.	2	11	0.6	.	i	.	.	-1.7
COc1ccc(S(=O)(=O)N(C)C[C@H]2Oc3cc(C#CC4CCCCC4)ccc3S(=O)(=O)N([C@@H](C)CO)C[C@H]2C)cc1	.	-1	-9	2.4	.	i	.	.	-5.1
Cc1noc(C)c1COC(=O)c1cc(S(=O)(=O)N2CCOCC2)ccc1F	0.67	-2	-4	-2.1	4.8	i	-3	6%	-17
O=C(c1ccccn1)N1CC2(C1)[C@H](c1ccccc1)[C@H](CO)N2Cc1ccc(Cl)cc1	.	-6	-50	25	.	i	.	.	2.4
COc1ccc(NC(=O)Cn2c(=O)oc3cc(S(=O)(=O)N4CCCC4)ccc32)c(OC)c1	0.72	9	14	1.8	3.1	i	-12	.	-4.9
CCn1c(C)cc(O)cc1=O	0.68	12	-4	-0.9	0.0	i	0	.	1.1
Cc1ccc(S(=O)(=O)N2CCOC2CNC(=O)C(=O)NCc2cccnc2)cc1 (configuration not stated)	0.71	0	2	-3.0	5.6	i	-3	-9%	-8.5
COc1ccc(NC(=O)Nc2ccc3c(c2)C(=O)N([C@@H](C)CO)C[C@H](C)[C@H](CN(C)C(=O)NC(C)C)O3)cc1	.	1	-5	-2.0	.	i	.	.	1.9
O=c1[nH]c2ccccc2[n+]([O-])c1-c1ccccc1	0.72	10	7	-1.3	-0.2	i	-8	0%	-0.6
C[C@H]1CN([C@@H](C)CO)C(=O)c2cccc(NC(=O)CCCCCC(=O)Nc3ccccc3N)c2O[C@H]1CN(C)Cc1ccc(Cl)c(Cl)c1	.	-8	-16	1.5	.	i	.	.	-3.4
O=C(O)CCNC1C=CS(=O)(=O)C1 (configuration not stated)	0.68	14	10	1.1	3.4	i	-5	10%	-1.6
CC1CC(C)CN(S(=O)(=O)c2ccc(NC(=O)CCN3C(=O)C4CC=CCC4C3=O)cc2)C1 (configuration not stated)	0.68	.	.	.	-4.1	i	.	7%	1.5
CCc1ccc(N(CC(=O)NC2CC2)S(=O)(=O)c2ccc(C)cc2)cc1	0.66	-1	2	-1.5	-5.2	i	-10	.	-4.3
O=C(O)CCN1C(=O)S/C(=C\c2cccnc2)C1=O	0.66	11	7	-6.6	1.6	.	6	?	12
COc1cc2cnc(-c3ccccc3)c(-c3ccc(C#N)cc3)c2cc1OC	0.78	-12	-21	-2.7	-1.4	i	0	.	-14
C[C@@H]1CN([C@H](C)CO)S(=O)(=O)c2ccc(-c3cccc(C#N)c3)cc2O[C@H]1CN(C)C(=O)Nc1ccccc1F	.	-11	-23	0.5	.	i	.	.	1.0
O=C1C2=C(C(c3ccccc3)=NCCN2)C(c2cccc([N+](=O)[O-])c2)N1c1ccccc1 (configuration not stated)	0.65	-3	-1	-2.4	4.6	i	-4	11%	2.7
CCc1ccc(Nc2nc(N3CCOCC3)nc(N3CCOCC3)n2)cc1	0.68	3	3	-1.2	3.2	i	-5	.	-0.1
NNC(=O)c1[nH]c2ccc([N+](=O)[O-])cc2c1-c1ccccc1	0.66	-3	-7	1.6	-1.5	i	-3	7%	1.1
CCOC(=O)C1CCN(S(=O)(=O)c2ccc3c(c2)N(C)C(=O)CC(=O)N3C)CC1	0.72	4	9	-0.1	-0.8	i	1	.	-9.0
CC(=O)Nc1nc(C)c(Oc2ccc(Cl)cc2)c(=O)[nH]1	0.63	.	.	.	-1.4	i	-8	-6%	-3.3
CCOC(=O)c1sc2ncnc(NCC(c3cccs3)N(C)C)c2c1C (configuration not stated)	0.7	.	.	.	14	.	-5	-16%	.
O=C(CSc1nc(=O)[nH]c2c1CCCC2)Nc1ccc(F)cc1F	0.66	6	8	-2.2	2.4	i	39	-5%	0.2

Later entries.
SMILES	E coli growth	Ecoli rRNA inh	Ecoli rRNA inh OD600	Ecoli rRNA inh RFP	HNF4A DNA FP	FGF22 binding	ALR inh	Vif TR-FRET	MLL AF4-AF9 inh
CC(C)[C@H](NC(=O)c1ccc(C(C)(C)C)cc1)C(=O)Nc1nnc(C2CC2)s1	0.7	.	.	.	-2.7	.	-10	8%	.
Cc1ccc(C(=S)N2CCN(Cc3ccccc3)CC2)s1	0.68	-30	-29	-3.3	-1.2	i	-14	15%	9.5
O=C(NCc1nnc(SCC(=O)N2CCCC2)o1)c1cccc(C(F)(F)F)c1	0.68	4	7	0.6	2.1	i	-6	5%	-0.3
COC(=O)Nc1ccc(S(=O)(=O)Nc2ncccn2)cc1	0.67	23	15	2.1	-0.2	i	.	23%	-2.2
CCC(C)N(C(=O)CSc1ncnc2c1cnn2-c1ccccc1)C1CCS(=O)(=O)C1 (configuration not stated)	0.66	2	9	-3.5	2.8	i	.	-24%	-1.2
COCC#Cc1ccc2c(c1)O[C@@H](CN(C)C(=O)C1CCC1)[C@@H](C)CN([C@@H](C)CO)S2(=O)=O	.	-5	-7	-0.8	.	i	.	.	-3.0
C[C@H]1CN([C@@H](C)CO)C(=O)c2cc(NC(=O)CCC(F)(F)F)ccc2O[C@H]1CN(C)S(=O)(=O)c1cccs1	.	0	-5	1.0	.	i	.	.	-1.5
COCC(=O)N(C)C[C@H]1Oc2ncc(C#CC3(O)CCCC3)cc2C(=O)N([C@H](C)CO)C[C@@H]1C	.	6	4	4.6	.	i	.	.	-2.8
CC(=O)Nc1c(C(=O)N2CCCCCC2)cnn1-c1ccccc1	0.76	.	.	.	1.5	.	4	-1%	.
CC(=O)c1ccc(Nc2nc(N3CCOCC3)nc(N3CCOCC3)n2)cc1	0.71	6	10	-0.8	-0.2	i	10	-4%	5.3
CCOC(=O)C(=O)Cc1nc2ccccc2s1	0.59	3	-13	5.6	1.8	i	14	-2%	4.8
CN1CCN(c2nc(NCc3ccco3)nc(N)c2[N+](=O)[O-])CC1	0.7	11	1	2.4	0.9	i	-10	-5%	3.6
COc1ccc(S(=O)(=O)N[C@H]2CC[C@H](CCNC(=O)c3ccccc3F)O[C@@H]2CO)cc1	.	-3&12	0&4	-3.4&1.9	4.8	i	.	.	-1.8&-0.1
Cc1cccc(/C=C/c2nc3ccccc3c(=O)[nH]2)c1	0.78	17	32	12	-0.1	i	1	-2%	0.9

In the list so far, 3 have a CF3 group.
SMILES	E coli growth	Ecoli rRNA inh	Ecoli rRNA inh OD600	Ecoli rRNA inh RFP	HNF4A DNA FP	FGF22 binding	ALR inh	Vif TR-FRET	MLL AF4-AF9 inh
CC1CN(c2nc3ccccc3nc2SCC(=O)Nc2cccc(C(F)(F)F)c2)CC(C)O1 (configuration not stated)	0.73	2	-1	1.1	-0.9	i	0	.	-3.2
O=C(NCc1nnc(SCC(=O)N2CCCC2)o1)c1cccc(C(F)(F)F)c1	0.68	4	7	0.6	2.1	i	-6	5%	-0.3
C[C@H]1CN([C@@H](C)CO)C(=O)c2cc(NC(=O)CCC(F)(F)F)ccc2O[C@H]1CN(C)S(=O)(=O)c1cccs1	.	0	-5	1.0	.	i	.	.	-1.5
